# VACV mCherry inh: qHTS for Stage-Specific Inhibitors of Vaccinia Orthopoxvirus: mCherry Reporter Primary qHTS. actives 0.63% (n = 310,000). Vaccinia virus mCherry reporter infection, fluorescence; about a quarter of the inactives have no number. AID 720579, 2013. Potency, µM (series often up to 36.5 µM), for the others: at the highest dose activity change, negative = inhibition, actives largely listed as inhibitors; active = well fitted inhibition curve with a large enough effect; inconclusive = small, poorly fitted or top-dose-only effect; inactive = no such curve, though single readings can be large or run the other way; tested in A549 cells; also: nearly all actives have a fitted effect of over 35% in size; inactives centre near -10
# VACV Venus inh: qHTS for Stage-Specific Inhibitors of Vaccinia Orthopoxvirus: Venus Reporter Primary qHTS | Vaccinia virus Venus reporter expression, fluorescence | Potency, µM (top dose mostly 36.5 µM), inactives show at the highest dose activity change, negative = inhibition, usual class: inhibitors | actives 0.46% (n = 330,000); active means well fitted inhibition curve with a large enough effect; inconclusive means small, poorly fitted or top-dose-only effect; inactive means no such curve, though single readings can be large or run the other way; tested in A549 cells; also: nearly all actives have a fitted effect of over 30% in size; inactives centre near -10
# Numbers without * were called inactive; i = inactive; ? = inconclusive; / = not tested or not shown; & = joins results of further samples; [ ] = dose if it differs, or a comment. % is scaled to controls: 0 for no effect and ±100 for the full control effect; potency is read from the fitted curve at half-maximal effect. Random draw from the library. Share with any hit: about 0.82%.
item	smiles	VACV mCherry inh	VACV Venus inh
1	Cn1cc(S(=O)(=O)N2CCN(Cc3ccccc3)CC2)c(=O)n(C)c1=O	i	-7%
2	COc1cc2ccccc2cc1C(=O)Nc1ccc2oc(-c3cccc(C)c3)nc2c1	-20%	-14%
3	OC[C@H]1O[C@H](OC[C@H]2OC(O)[C@H](O)[C@@H](O)[C@@H]2O)[C@H](O)[C@@H](O)[C@@H]1O (some centres undefined)	-12%	-11%
4	O=C(NNC(=O)c1nn(-c2ccc(F)cc2)ccc1=O)c1ccccc1Cl	i	17%
5	CCOC1=C2CN(S(=O)(=O)c3ccc(C)cc3)[C@H](c3cccc(Cl)c3)C[C@@H]2N(S(=O)(=O)c2ccccc2[N+](=O)[O-])[C@H](c2ccccc2)C1	33%[activator]	0%
6	CN1CCC(CC(C(=O)N2CCCC2)(c2ccccc2)c2ccccc2)C1 (centres undefined)	-5%	-6%
7	Cc1csc(=Nc2cccnc2)n1CC1CCCCC1	-8%	-10%
8	CN1C(=O)[C@@H]2[C@@H]3C[C@@H]([C@H]4ON=C(c5ccccc5OCC#N)[C@@H]34)[C@@H]2C1=O	-5%	-9%
9	CCOc1ccc(N(CC(=O)Nc2ccc(C)cc2)S(C)(=O)=O)cc1	-2%	-11%
10	Cn1c(CC(=O)Nc2ccc(Cl)c(Cl)c2)nnc1SCC(=O)NCc1ccccc1	3%	-6%
11	COc1ccc(F)cc1S(=O)(=O)NCCc1sc2nc(-c3ccc(F)cc3)nn2c1C	-25%	-27%
12	COc1ccc(S(=O)(=O)NNC(=O)c2cc3ccccc3o2)cc1	i	0%
13	Cc1cnc(CNc2ncncc2-c2ccccc2CN(C)C)cn1	-20%	-19%
14	Cc1cc(C)cc(NC(=O)c2ccc3c(c2)nnn3C2CCCC2)c1	-17%	-20%
15	Cc1cc(=O)c2c(o1)CC(C)(C)CC2=O	i	-9%
16	Cc1ccc2oc(Nc3nc(-c4ccccc4)cc(=O)[nH]3)nc2c1	0%	-15%
17	NS(=O)(=O)c1cccc(NC(=O)C2CC(=O)N(Cc3ccco3)C2)c1 (centres undefined)	i	-4%
18	Cc1cccc(CC(=O)N2CCN(C(=O)c3ccco3)CC2)c1	-8%	-1%
19	COc1ccc(OC)c(C2NC(=S)NC(C)=C2C(=O)Nc2ccccn2)c1 (centres undefined)	-7%	0%
20	COc1ccc(CNC(=O)c2cc3c(=O)oc4ccc(C)cc4c3s2)c(OC)c1	13%	6%
21	COc1ccc(NCc2ccc([N+](=O)[O-])s2)c(OC)c1	i	-8%
22	COc1ccc(CNC(=O)COC(=O)c2ccccc2OCC(=O)Nc2ccc(SC(F)F)cc2)cc1	-18%	-16%
23	Cc1ccc(C(=O)c2cn(Cc3ccccc3C)c3nc(C)ccc3c2=O)cc1	-17%	-12%
24	COc1ccc(N(C(=O)c2ccc(C(C)(C)C)cc2)S(=O)(=O)c2ccc(Cl)cc2)cc1	-15%	-4%
25	CCOc1ccc(NC(=S)N2CCC(C(N)=O)CC2)cc1	i	-16%

# Going on with the list.
item	smiles	VACV mCherry inh	VACV Venus inh
26	COCc1ccc(C(=O)N(C)C2CCCN(Cc3ccccc3F)C2)o1 (centres undefined)	-12%	-1%
27	CCc1ccc(/C=N/Nc2ncnc3nc[nH]c23)cc1	-13%	-22%
28	O=C1CCN(Cc2ccccc2)CCN1[C@H](CSc1ccccc1)Cc1ccccc1	-16%	-9%&-10%
29	CN(Cc1ccc(F)cc1Cl)S(=O)(=O)c1cccs1	-23%	-9%
30	CCc1nc2c(OCc3ccc(C(=O)N(C)C)cc3)cccn2c1N(C=O)Cc1ccccc1	-6%	-1%
31	COc1cccc(C(C(=O)NCc2ccco2)N(C(=O)Cn2nnc3ccccc32)C2CC2)c1OC (centres undefined)	/	25%
32	COc1ccccc1Nc1ccc(C(=O)NCc2cccs2)cn1	i	-13%
33	CCN1C(=O)/C(=C\c2cccn2-c2ccc([N+](=O)[O-])cc2)N(CC)C1=S	-18%	-17%
34	COc1cc(=O)n2c(c1C(=O)N(C)Cc1nonc1C)CCN(C(=O)C1C(C)(C)C1(C)C)CC2	i	0%
35	CCn1c2ccccc2c2cc(/C=N/n3c(-c4cc(C)[nH]n4)n[nH]c3=S)ccc21	-16%	-29%
36	CC(=O)N(c1nnc(-c2cccc(C)c2)s1)C1CCCC1	-14%	-9%
37	Cc1ccc(NC(=O)c2cnn3c(C(F)F)cc(-c4ccccc4)nc23)c(C)c1	-15%	-23%
38	CC1=C(n2nnc([N+](=O)[O-])n2)C(c2cccnc2)C(C#N)=C(N)O1 (centres undefined)	?	-28%
39	COCCN(C(=O)COC(=O)c1cc2ccccc2cc1OC)c1c(N)n(Cc2ccccc2)c(=O)[nH]c1=O	i	-10%
40	Cc1ccc(C)c(NC(=O)CCN2CCCCC2)c1	i	-13%
41	CC1CCN(c2nc3c(=O)[nH]c(N)nc3n2[C@@H]2O[C@H](CO)[C@@H](O)[C@H]2O)CC1	i	-11%
42	Cc1ccc(C(=O)OCC(=O)N2CCC(c3ccccc3)=N2)c(C)c1	-17%	-14%
43	CCOC(=O)c1nc(C)nc(Sc2n[nH]c(-c3cc(Cl)cc(Cl)c3)n2)c1C	i	0%
44	Cc1ccc(NC(=O)CSc2ncccn2)c([N+](=O)[O-])c1	-4%	-9%
45	CC(C)(C)NC(=O)NC(=O)CN1CCN(c2ncc(C(F)(F)F)cc2Cl)CC1	-14%	-2%
46	CCOC(=O)N1CCN=C1SCc1ccc(C(F)(F)F)cc1	-16%	-5%
47	Cc1ccc2c(=O)cc(CSc3nnc(-c4ccccc4)n3C)[nH]c2c1C	14%	-5%
48	COc1ccc(NC(=S)NCCSc2ccc(C)cc2)c(OC)c1	?	-26%
49	CCOc1ccccc1NC(=O)C1CCCN1S(=O)(=O)c1ccc2c(c1)C(C)(C)C(=O)N2C (centres undefined)	i	-16%
50	CCC(C(=O)NC(C)(C)C)n1c(-c2ccc(C)cc2)nc2ccccc21 (centres undefined)	-2%	-6%

# The list continues.
item	smiles	VACV mCherry inh	VACV Venus inh
51	COc1cc(CNCCc2c[nH]c3ccccc23)cc(OC)c1OC	-6%	-8%
52	CC(=O)c1ccc2c(c1)OCCOCCOCCO2	i	-7%
53	CC(=O)N(C)C1=Nc2ccc(Cl)cc2C(c2ccccc2)=[N+]([O-])C1	i	4%
54	CCC(C)NC(=O)CCSCCC(=O)NC(C)CC (centres undefined)	i	-16%
55	COc1cc(NC(=O)CN(C)S(=O)(=O)c2ccc3c(c2)CCCC(=O)N3)cc(OC)c1OC	-3%	5%
56	COc1ccccc1C1N=C(Nc2nc3ccccc3o2)NC2=C1C(=O)CC(C)(C)C2 (centres undefined)	i	-14%
57	Cc1ccc(NC2CCCN(C(=O)CSc3ccccn3)C2)cc1C (centres undefined)	i	-11%
58	CCNC(=S)N(CCc1cccc(C)c1)Cc1cc2cc(OC)c(OC)cc2[nH]c1=O	-23%	-21%
59	CC(OC(=O)C(C)N1C(=O)C2C3C=CC(C4CC34)C2C1=O)C(=O)c1ccccc1 (centres undefined)	-9%	-6%
60	CCN=C1S/C(=C\c2cn(CC)c3ccccc23)C(=O)N1CC	-25%	-11%
61	Cc1ccc(Cn2ccc(NC(=O)C3C4CCC(C4)C3C(=O)O)n2)cc1 (centres undefined)	/	-17%
62	Clc1ccc(CONc2ncnc3nonc23)c(Cl)c1	-18%	-22%
63	O=[N+]([O-])c1ccc2c(c1)C=C1CCCCC1(N1CCCC1)O2 (centres undefined)	i	-11%
64	CCOc1ccc(C(=O)NCC(c2ccc3c(c2)OCO3)N2CCOCC2)cc1 (centres undefined)	3%	-7%
65	CC(C)C(NS(=O)(=O)c1ccc2c(c1)oc(=O)n2C)C(=O)NCc1ccccc1 (centres undefined)	-5%	7%
66	CCOc1ccc(C(=O)C[n+]2ccc(C(=O)NCc3ccccc3)cc2)cc1	-16%	-12%
67	CC1(c2ccc3ccccc3c2)NC(=O)N(CC(=O)NCC(C)(C)N2CCOCC2)C1=O (centres undefined)	-6%	-3%
68	CCc1nc(Nc2ccc3nccnc3c2)c2oc3ccccc3c2n1	-17%	-13%
69	COc1ccc(CN(C)C(=O)Cn2cnc3c(NCc4ccccc4)ncnc32)cc1OC	?	-20%
70	CC1(C(=O)NC(=S)N(Cc2ccccc2)c2ccccn2)CC1(Cl)Cl (centres undefined)	-9%	0%
71	COc1ccc(CCNC(=O)C2CCN(S(=O)(=O)c3cccc4nonc34)CC2)cc1OC	/	-15%
72	O=C1N/C(=C/c2cccn2-c2ccccc2)C(=O)N1Cc1ccc(F)cc1	-22%	-13%
73	O=C(O)CCC(=O)C(=O)O (tested in a mixture with another compound)	-16%	-16%
74	CN1C(=O)/C(=C\c2cc(Br)cs2)c2ccccc21	-14%	-8%
75	Cc1noc(C)c1C(=O)OCC(=O)Nc1cccc(F)c1	i	-5%

# 4 entries from above, with two lines to a compound:
# Values in the order – VACV mCherry inh	VACV Venus inh
61. Cc1ccc(Cn2ccc(NC(=O)C3C4CCC(C4)C3C(=O)O)n2)cc1 (centres undefined)
  /	-17%
75. Cc1noc(C)c1C(=O)OCC(=O)Nc1cccc(F)c1
  i	-5%
74. CN1C(=O)/C(=C\c2cc(Br)cs2)c2ccccc21
  -14%	-8%
54. CCC(C)NC(=O)CCSCCC(=O)NC(C)CC (centres undefined)
  i	-16%

# Back to the main list, starting 2 compounds before the break.
No.	mol	VACV mCherry inh	VACV Venus inh
74	CN1C(=O)/C(=C\c2cc(Br)cs2)c2ccccc21	-14%	-8%
75	Cc1noc(C)c1C(=O)OCC(=O)Nc1cccc(F)c1	i	-5%
76	CC1(C)OC(c2ccccc2)=C/C(=C\C=N\NC(=O)c2ccncc2)O1	i[7.34 µM]	-3%[7.34 µM]
77	CC1CC1c1ccc(/C=C(\C#N)C(=O)Nc2cc(Cl)ccc2Cl)o1 (centres undefined)	i	-15%
78	N#Cc1c(N)n(CCOC(=O)c2cccc(Br)c2)c2nc3ccccc3nc12	/	0%
79	COc1cc(OC)cc(C(=O)Nc2ccc(S(=O)(=O)Nc3onc(C)c3C)cc2)c1	0%	0%
80	COc1ccc(C(=O)Nc2cc(=O)n(C)c(=O)n2C)cc1OC	32%[activator]	-6%
81	CCOC(=O)C1CCCN(C(=O)C2CCN(S(=O)(=O)c3c(C)noc3/C=C/c3ccc(C)cc3)CC2)C1 (centres undefined)	-18%	-11%
82	COc1ccc(-n2c(=O)c3sc4ccccc4c3n(C)c2=O)cc1	-2%	-10%
83	CCOC(=O)c1c(S(=O)(=O)NCC(=O)Nc2cc(C)ccc2C)c(C)n(C)c1C	-7%&-12%	-20%&-13%
84	CS(=O)(=O)N(CC(=O)Nc1ccccc1-c1ccccc1)c1ccc(F)cc1	-9%	-13%
85	COc1cccc(C(C(=O)NC(C)(C)C)N(Cc2ccco2)C(=O)CCC(=O)Nc2cc(C)on2)c1OC (centres undefined)	-7%	-3%
86	O=C(N/C=C/n1cnc2cc(C(F)(F)F)ccc21)c1ccc(F)cc1	i	-8%
87	Cc1cc(NC(=O)c2nn(C)c(C)c2[N+](=O)[O-])no1	?	-22%
88	COC(=O)c1ccc(C2=NOC(C)(c3nnc(Cc4ccccc4)o3)C2)cc1 (centres undefined)	i	-18%
89	Cc1ccc(NC(=O)c2ccccc2-c2ccc(C(F)(F)F)cc2)cc1S(=O)(=O)N1CCOCC1	-22%	-18%
90	CSc1nc2sc3c(c2c(=O)n1-c1ccccc1)CCC(C(C)(C)C)C3 (centres undefined)	-1%	4%
91	CCC(=O)Nc1ccc(C(=O)Nc2ccc(OC)cc2[N+](=O)[O-])cc1	-3%	2%
92	COc1ccc(NC(=O)c2ccc(C)o2)c([N+](=O)[O-])c1	-3%	-1%
93	COc1cccc(-c2cnc(C(O)c3ccc(Cl)cc3C)[nH]2)c1 (centres undefined)	i	-4%
94	CCOc1ccc(C(=O)O)cn1	15%	8%
95	O=C(c1ccc2c3n(nc2c1)-c1ccc(Cl)cc1CO3)N1CCCCC1	-28%	-18%
96	O=C(c1[nH]nc2c1CCc1ccccc1-2)N1CCN(Cc2ccc3c(c2)OCO3)CC1	?	-28%
97	Cc1nc2ccn(Cc3ccccc3)c(=O)c2cc1C(=O)N1CCN(c2ccccc2)CC1	-15%	-9%
98	O=C(Cn1nnc(-c2ccccc2NC(=O)c2ccco2)n1)Nc1ccccc1	/	?
99	CC(C)c1ccc(NC(=O)NC2(C(=O)NCc3cccnc3)CCCCC2)cc1	-19%	-11%
100	CC1CCN(C(=O)COC(=O)C2CCN(S(=O)(=O)c3ccc(Cl)c(C(F)(F)F)c3)CC2)CC1	i	-7%
101	CCOC(=O)c1c(NC(=O)c2c(C)noc2C)sc2c1CCCCC2	/	-13%
102	Cc1cc(C(=O)Cn2nnc3ccccc3c2=O)c(C)n1-c1ccccc1F	/	-7%

# An excerpt of these results, as labelled records:
78: N#Cc1c(N)n(CCOC(=O)c2cccc(Br)c2)c2nc3ccccc3nc12
  VACV mCherry inh: / | VACV Venus inh: 0%
100: CC1CCN(C(=O)COC(=O)C2CCN(S(=O)(=O)c3ccc(Cl)c(C(F)(F)F)c3)CC2)CC1
  VACV mCherry inh: i | VACV Venus inh: -7%
95: O=C(c1ccc2c3n(nc2c1)-c1ccc(Cl)cc1CO3)N1CCCCC1
  VACV mCherry inh: -28% | VACV Venus inh: -18%
102: Cc1cc(C(=O)Cn2nnc3ccccc3c2=O)c(C)n1-c1ccccc1F
  VACV mCherry inh: / | VACV Venus inh: -7%

# Screens from PubChem BioAssay.
